BmaI1: BmaI1 acyl-homoserine lactone synthase inhibition – biochemical, fluorescence intensity, with counterscreen (AID 720554) | BmaI1 enzyme assay, fluorescence intensity; stronger effect = higher value; test concentration not given here; a few actives read low; strong numbers were not always called active | inhibition, % | 12,000 compounds, 0.4% hits;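 active = both replicates within 2 robust z-scores of the inhibited control and a quiet counterscreen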;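 note: 0% = uninhibited enzyme and 100% = inhibited control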
BmaI1 counterscreen: recorded beside BmaI1, whose call it bears; inhibition, %; measured here: counterscreen; design of the counterscreen not given here;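 first of two replicates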
* = called active by the depositor.

item	molecule	BmaI1	BmaI1 counterscreen
1	O=C(OCC(=O)N1CCNC1=O)c1cc(-c2ccc(Cl)cc2)nc2ccccc12	-2	3
2	COc1ccc(Br)cc1CO	6	4
3	Cc1ccc(S(=O)(=O)N2CCN(C(=O)C3CCCN3C(=O)OC(C)(C)C)CC2)c(C)c1 (configuration not stated)	6	-6
4	O=C1NC2(CCCC2)C(=O)N1CN1CCC(Cc2ccccc2)CC1	-10	-12
5	O=C1NC(=O)C2(CCSc3ccc(F)cc32)N1 (configuration not stated)	16	8
6	O=C1CCN(c2nc(-c3ccccc3)nc3ccccc23)CC1	12	15
7	O=C(NCCc1c[nH]c2ccccc12)c1cccc(S(=O)(=O)N2CCCC2)c1	18	8
8	N#CCN(C(=O)CSc1nccn1-c1cccc(Cl)c1)c1ccccc1	18	11
9	O=S(=O)(c1ccc2oc(=S)n(CN3CCOCC3)c2c1)N1CCOCC1	100*	4.0*
10	Cc1cc2c3cccn3ccn2c1	55	18
11	O=c1[nH]c(SC2Cc3ccccc3C2O)nc2c1cnn2-c1ccccc1 (configuration not stated)	19	6
12	CCc1ccc(C(=O)COC(=O)c2cnc(C)cn2)cc1	-5	-8
13	COc1cc(Cl)c(C)cc1NC(=O)C1CSC2(C)CCC(=O)N12 (configuration not stated)	8	10
14	CC(C)CNC(=O)COc1ccc(-c2nnco2)cc1	30	2
15	O=C(CSc1ccc2c(c1)OCCO2)N1CCN(Cc2ccccc2)CC1	13	4
16	Cc1cc(CN2c3cccc4cccc(c34)S2(=O)=O)no1	18	19
17	O=C(O)/C(=C\c1cccc(C(F)(F)F)c1)Sc1nnc(-c2ccco2)o1	6	6
18	COCC(C)n1c(COc2ccccc2F)nnc1SCc1nnc(-c2ccccc2)o1 (configuration not stated)	14	10
19	NC(=O)COC(=O)c1oc2ccccc2c1COc1ccccc1	28	-1
20	CN1[C@@H]2CC[C@H]1CC(OC(=O)C(CO)c1ccccc1)C2 (some centres not stated)	9	28
21	CCOc1ccc(C2CCCN2Cc2nc(N)nc(Nc3ccccc3)n2)cc1 (configuration not stated)	20	11
22	CC(C)CCNC1=NCCCCC1	5	4
23	CC/C(Cc1ccccc1)=N\NC(=O)c1cc(C)oc1C	22	24
24	c1csc(CNc2ncnc3sccc23)c1	10	2
25	O=C1c2ccccc2S(=O)(=O)NN1CN1C(=O)c2ccccc2C1=O	9	6
26	CC(CC(=O)OCc1ccccc1)n1ccnc1 (configuration not stated)	15	5
27	CNC(=O)NC(=O)CSc1nnc(SCC(=O)NC(=O)NC)s1	8	17
28	CCN(CC)S(=O)(=O)c1ccc2nc(CSc3nnnn3-c3ccc(O)cc3)[nH]c2c1	16	18
29	O=S(=O)(c1cccc(CSc2nc3ccccc3s2)c1)N1CCOCC1	12	14
30	O=C(Oc1ccc(-c2nnco2)cc1)C1CC(=O)N(c2ccc3c(c2)OCCO3)C1 (configuration not stated)	4	-3
31	O=C(CN1CSCC1=O)Nc1ccc(I)cc1	10	7
32	O=C(OCC(=O)N1CCCC1=O)c1ccc(-c2ccc(O)cc2)cc1	12	7
33	CN1/C(=C2\C=NN(C)P2(=S)N2CCCC2)C(C)(C)c2ccccc21 (configuration not stated)	15	10
34	Cc1ccc(NC(=O)c2cc(C)oc2C)c(Br)c1	16	2
35	O=C1CN(C(=O)CSC2=Nc3ccccc3CS2)c2ccccc2N1	14	10
36	CCN(CC(=O)NCc1ccc(Cl)cc1)CN1C(=O)C2CC=CCC2C1=O (configuration not stated)	7	3
37	CS(=O)(=O)c1cccc(C(=O)Nc2ccnn2C2CCCC2)c1	8	3
38	O=C(OCCCCN1C(=O)c2ccccc2C1=O)C1=NN(c2ccccc2)C(=O)CC1	-5	-6
39	CC(=O)Nc1ccc(S(=O)(=O)N(C)CC(=O)OCc2cc(=O)oc3cc(O)ccc23)cc1	9	0
40	COc1ccccc1C(=O)/C=C1\NC(=O)CS1	0	5
41	O=C(OCCOc1ccccc1)c1cccc(OC(F)F)c1	16	14
42	Cn1nc(C(=O)N2CCCSC2=Nc2ccccc2)c2ccccc2c1=O	12	1
43	O=C(OCc1ccccc1)c1cccnc1	3	-1
44	Cc1ccccc1CSCC(=O)c1ccc[nH]1	10	12
45	O=C(c1cc2ccccc2cc1OCC(=O)N1CCc2ccccc21)N1CCOCC1	13	18
46	CCCc1cc(=O)[nH]c(SCC(N)=O)n1	14	14
47	CCc1ccc(C(=O)COC(=O)C2(CC(=O)N3CCOCC3)CCCC2)cc1	12	1
48	O=C(Cc1ccc(S(=O)(=O)N2CCOCC2)s1)Nc1ccc2ccccc2c1	14	-2
49	O=C(Cn1ccccc1=O)Nc1ccc2c(c1)OC1(CCCC1)O2	10	-5
50	CCc1cc(=S)n2c([nH]c3ccccc32)c1C#N	94	74
51	Cc1csc(=O)n1CC(=O)Oc1ccc(Oc2ccccc2)cc1	3	8
52	Cc1ccc2c(CC(=O)NC3=NCCS3)coc2c1	6	1
53	CC(=O)Nc1cccc(OCC(=O)N2N=C(c3ccc(Cl)cc3)CC2c2ccco2)c1 (configuration not stated)	26	9
54	CCN(CC(=O)Nc1ccc2c(c1)OCCO2)CC(=O)Nc1sccc1C#N	21	1
55	CC1(C)SC2C(NC(=O)Cc3ccccc3)C(=O)N2C1C(=O)O (configuration not stated)	-10	-6
56	CCOC(=O)C1CCN(CC(=O)CNc2ccc(Cl)c(Cl)c2)CC1	22	16
57	CCn1c(SCC(=O)c2cc(C)n(CC3CCCO3)c2C)nnc1-c1ccccc1 (configuration not stated)	2	7
58	Cc1cnc(C(=O)Nc2cc(S(C)(=O)=O)ccc2Cl)cn1	16	8
59	COc1ccc(-c2csc(-c3cccs3)n2)c(OC)c1	2	11
60	COc1ccccc1CC(=O)N1CCN(c2ccc(C(F)(F)F)cn2)CC1	4	2

Continuation:
item	molecule	BmaI1	BmaI1 counterscreen
61	N#Cc1ccc(C(=O)N(CC(=O)Nc2ccccc2C(F)(F)F)Cc2ccco2)cc1	10	4
62	O=C(CSC(=S)N1CCCC1)Nc1ccccc1OC(F)F	24	6
63	O=c1[nH]nc(-c2cccs2)c2ccccc12	8	1
64	Cc1cc(/C=N/NC(=S)NCC2CCCO2)c(C)n1CC(C)C (configuration not stated)	5	-4
65	O=c1[nH]c(SCC2CCCCO2)nc2ccccc12 (configuration not stated)	6	8
66	Nc1cc(-c2ccccc2)no1	20	13
67	NC(=O)COC(=O)COc1ccc(OCc2ccccc2)cc1	3	2
68	COc1ccc(CNC(=O)C(C)n2nnc(-c3ccc(OC)c(OC)c3)n2)cc1 (configuration not stated)	24	9
69	O=C1CCCCC1Sc1ncnc2sccc12 (configuration not stated)	14	0
70	Cc1nc(COC(=O)c2n[nH]c3ccccc23)cs1	12	12
71	O=C(OCC(=O)c1ccccc1)C1=NN(c2ccccc2)C(=O)CC1	6	2
72	O=C(C(Sc1ccccc1)c1ccccc1)N1CCN(c2ncccn2)CC1 (configuration not stated)	14	10
73	O=C(Cc1csc(NC(=O)c2ccco2)n1)NC1CCCCCC1	6	6
74	C[C@@H]1C[C@H]2[C@@H]3CCC4=CC(=O)C=C[C@]4(C)[C@@]3(F)[C@@H](O)C[C@]2(C)[C@@]1(O)C(=O)CO	16	23
75	Cc1ccc(-n2c(SCc3ccc(C#N)cc3)nc3ccccc32)cc1	30	12
76	CCOC(=O)C1=C(CC)Nc2ccccc2N=C1NC(=O)c1cccc(S(=O)(=O)N2CCCC2)c1	7	9
77	Cc1ccc(-n2c(C)cc(CC#N)c2C)cc1	46	20
78	C/C(N)=C(/C#N)C(=O)CSc1nnc(COc2cc(C)ccc2C)o1	8	2
79	CSCc1c(C(=O)Nc2ccc(NC(C)=O)cc2)oc2ccccc12	11	10
80	O=C(NC1CCN(Cc2ccccc2)CC1)c1cn(-c2ccccc2)nc1-c1cccs1	15	2
81	c1ccc(Cn2c(SCCOc3ccccc3)nnc2-c2ccco2)cc1	20	-4
82	CC(C(=O)NCc1ccc2c(c1)OCO2)N1CCN(c2ccc(O)cc2)CC1 (configuration not stated)	90	47
83	CCn1c2ccccc2c2nc3cc(C(=O)O)ccc3nc21	10	14
84	CN1CCN(c2ccccc2NC(=O)C2CCC2)CC1	21	0
85	O=C(CSc1ncccc1C(=O)Nc1ccnn1Cc1cccnc1)Nc1ccc2c(c1)OCO2	28	10
86	COc1ccc(CCNC(=O)c2ccc(NC(=O)CC#N)cc2)cc1OC	7	14
87	CCOC(=O)Nc1ccc2c(CSc3ncccn3)cc(=O)oc2c1	12	0
88	CC(OC(=O)c1cn(Cc2ccccc2)nc1-c1cccs1)C(N)=O (configuration not stated)	19	10
89	CCCCn1c(SC(C)C(N)=O)nc2ccccc2c1=O (configuration not stated)	8	7
90	O=c1c(O[C@@H]2O[C@H](CO)[C@H](O)[C@H](O)[C@H]2O)c(-c2ccc(O)c(O)c2)oc2cc(O)cc(O)c12	65	32
91	C#C[C@]1(O)CC[C@H]2[C@@H]3[C@H](C)CC4=C(CCC(=O)C4)[C@H]3CC[C@@]21C	60	16
92	CCNc1ccc(P(=O)(CC)CC)cc1	16	6
93	CCc1nn(CCCN2CCN(c3cccc(Cl)c3)CC2)c(=O)n1CCOc1ccccc1	-1	8
94	Cn1cnnc1SC(C(=O)Nc1cccc(C(F)(F)F)c1)c1ccccc1 (configuration not stated)	4	-5
95	COc1ccccc1CN(C)C(=O)CNC(=O)c1ccc(Br)o1	14	8
96	Cc1ccc(/C=C2\CC3C4CC=C5CC(O)CCC5(C)C4CCC3(C)C2O)o1 (configuration not stated)	10	8
97	CCNc1nc(NCC)n2c(SCC(=O)NC34CC5CC(CC(C5)C3)C4)nnc2n1	15	7
98	CN(C)Cc1ccc(CNCc2cnn(-c3ccccc3)n2)cc1	7	6
99	Cc1ccc(-n2c(C)cc(C3=NN=C(N)SC3)c2C)cc1C	54	17
100	O=C(C1CCCN1C(=O)c1cccs1)N1CCN(S(=O)(=O)Cc2ccccc2)CC1 (configuration not stated)	10	4
101	CCN(CC(=O)NCc1ccc(F)cc1)C(=O)Cn1c(C)nc2ccccc21	11	6
102	COC(=O)c1ccc(CNC(=O)C(C)Sc2ccccc2)cc1 (configuration not stated)	16	6
103	Cn1nc(N2CCN(CC(=O)Nc3ccc(OC(F)(F)F)cc3)CC2)c(=O)n(C)c1=O	14	11
104	Cc1c(NC(=O)C(C)OC(=O)c2cccc(S(=O)(=O)N3CCCC3)c2)c(=O)n(-c2ccccc2)n1C (configuration not stated)	17	10
105	CCNC(=O)/C=C/c1cccc(OC)c1OC	8	2

Part of the list above, reformatted.
Values run as follows: BmaI1, BmaI1 counterscreen
100	O=C(C1CCCN1C(=O)c1cccs1)N1CCN(S(=O)(=O)Cc2ccccc2)CC1 (configuration not stated)
 : 10, 4
101	CCN(CC(=O)NCc1ccc(F)cc1)C(=O)Cn1c(C)nc2ccccc21
 : 11, 6
95	COc1ccccc1CN(C)C(=O)CNC(=O)c1ccc(Br)o1
 : 14, 8

(cont.)
item	molecule	BmaI1	BmaI1 counterscreen
106	Clc1ccc(/C=N/NCc2cn3ccsc3n2)cc1	-26	-31
107	CCCCN(c1ccccc1)S(=O)(=O)c1ccc(F)cc1F	-10	2
108	Cc1nn(Cc2ccccc2Cl)c(C)c1C(=O)NCc1cccs1	10	5
109	NCCSc1ccccc1	-2	-4
110	Brc1cc2c(cc1Cn1nnc(-c3cccs3)n1)OCO2	7	2
111	CC(C)N=C1NN=C(c2cccs2)CS1	22	40
112	CCSc1nnc(NC(=O)C2=NN(c3cc(C)ccc3C)C(=O)CC2)s1	23	16
113	Cc1cccc(NC(=O)CN(C)C(=O)C2CCCC2)c1C	5	-4
114	CC(C)(C)c1nnc2n1N=C(c1ccc(Br)s1)CS2	8	6
115	Cc1cc(C)c(C(=O)COC(=O)C2CSC3(C)CCC(=O)N23)cc1C (configuration not stated)	6	-8
116	CC(C)Oc1ccccc1/C=N/O	4	5
117	CCCCCC1C/C(=N\O)C=C(C)C1C(=O)OC (configuration not stated)	16	2
118	NC(=O)C1CCN(Cc2c(O)ccc3cc(Br)ccc23)CC1	34	10
119	O=C(NCCC(=O)N1CCCc2ccccc21)c1ccco1	4	8
120	Cc1ccc(N2C(=O)c3ccccc3NC2c2ccc(C)o2)cc1 (configuration not stated)	14	12

Compound profiles (already shown). Order of screens: BmaI1, BmaI1 counterscreen
`Cc1cc(C)c(C(=O)COC(=O)C2CSC3(C)CCC(=O)N23)cc1C` (configuration not stated) across the screens: 6, -8
`CC(C)(C)c1nnc2n1N=C(c1ccc(Br)s1)CS2` across the screens: 8, 6
`CC(C)N=C1NN=C(c2cccs2)CS1` across the screens: 22, 40
`Cc1nn(Cc2ccccc2Cl)c(C)c1C(=O)NCc1cccs1` across the screens: 10, 5
`Brc1cc2c(cc1Cn1nnc(-c3cccs3)n1)OCO2` across the screens: 7, 2

Following part
item	molecule	BmaI1	BmaI1 counterscreen
121	CC(=O)N1CCN(C(=O)CSc2nc3ccc(Cl)cc3c(=O)n2-c2ccc(F)cc2F)CC1	1	4
122	CC(=O)NCc1ccc(C(=O)CSc2nnc(-c3cccs3)n2C2CC2)s1	35	4
123	O=c1cc(Cn2cc(C(F)(F)F)cc(Cl)c2=O)[nH]c(=O)[nH]1	8	4
124	COc1ccccc1N1CCN(C(=O)C2CCCN2C(N)=O)CC1 (configuration not stated)	0	-12
125	CN(c1ccc(F)cc1)S(=O)(=O)c1ccc(Cl)c(C(=O)NCc2ccco2)c1	18	17
126	O=C(COC(=O)c1ccc(S(=O)(=O)NCc2ccco2)cc1)NCc1ccco1	10	12
127	Oc1ccc(/C=N/NC(=S)Nc2ccc(Cl)cc2Cl)c(O)c1O	84*	16*
128	O=C1CSC(=S)N1/N=C/c1cccs1	96	56
129	O=C(NCCc1ccccn1)c1cccc(S(=O)(=O)N2CCc3ccccc32)c1	-2	-5
130	N#CCC(=O)Nc1ccc(C(=O)NCc2ccccc2)cc1	30	22
131	FC(F)Oc1ccc(-c2csc(=Nc3cccnc3)n2C2CC2)cc1	22	16
132	CN(Cc1cccs1)C(=O)c1cc(Br)c(Br)s1	6	4

These rows are one share of the data; rates above refer to the full screens.
